Screens deposited in PubChem BioAssay by National Center for Advancing Translational Sciences (NCATS).
StopGo reporter = lowers the luciferase signal of an FMDV 2A StopGo reporter | human cells with a luciferase reporter of 2A StopGo recoding; control for the full effect not named in the record | Potency, µM (series often up to 57.9 µM), for inactives: at the top dose signal change, negative = less light | actives 1.2% (n = 410,000) | AID 1159524; active = well fitted falling curve with a large enough effect; inconclusive = small, poorly fitted or top-dose-only effect; inactive = no such curve, though single readings can be large or run the other way; tested in HEK293T cells; further: on the % scale 0 is the no-effect control and ±100 the full control effect; nearly all actives have a fitted effect of over 45% in size; luciferase light after 4 h
SARS PLpro yeast = SARS-CoV PLP inhibition in yeast; AID 485353; S. cerevisiae expressing SARS-CoV PLpro, growth rescue; control for the full effect not named in the record; Potency, µM (top dose mostly 32.9 µM), for inactives: at the top dose activity, positive = growth rescue; actives 0.19% (n = 330,000); active means well fitted rising curve with a large enough effect; inconclusive means small, poorly fitted or top-dose-only effect; inactive means no such curve, though single readings can be large or run the other way; further: 0% is about no effect; nearly all actives have a fitted effect of over 55% in size; growth read by luminescence after 48 h
NS1 inh = blocks influenza NS1 protein function. actives 0.4% (n = 270,000). Potency, µM (series often up to 46.1 µM), inactives show at the highest dose activity, positive = more growth. S. cerevisiae slowed by influenza A NS1, growth recovery by OD600; active means well fitted rising curve with a large enough effect; inconclusive means small, poorly fitted or top-dose-only effect; inactive means no such curve, though single readings can be large or run the other way; further: nearly all actives have a fitted effect of over 50% in size
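Read-out: OD600 growth recovery of NS1-expressing budding yeast. Cells grown overnight at 30C in -URA glucose medium, washed, resuspended and diluted 1:100 in 2% galactose assay medium, pH 6.0. Same strain lacking NS1 served as positive control.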
Cruzain inh noDet = inhibitors of Trypanosoma cruzi cruzain without detergent; P25779; actives 2.3% (n = 200,000); AID 1476; Potency, µM, for inactives: max response, negative = inhibition, usual class: inhibitors; purified cruzain, Z-FR-AMC fluorescence, no detergent;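 further: plate controls were enzyme without inhibitor for no effect and buffer without enzyme for full effect; nearly all actives have a fitted effect of over 40% in size; top concentration of the series not given in the record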
Target sequence (P25779 123-467 limits assumed): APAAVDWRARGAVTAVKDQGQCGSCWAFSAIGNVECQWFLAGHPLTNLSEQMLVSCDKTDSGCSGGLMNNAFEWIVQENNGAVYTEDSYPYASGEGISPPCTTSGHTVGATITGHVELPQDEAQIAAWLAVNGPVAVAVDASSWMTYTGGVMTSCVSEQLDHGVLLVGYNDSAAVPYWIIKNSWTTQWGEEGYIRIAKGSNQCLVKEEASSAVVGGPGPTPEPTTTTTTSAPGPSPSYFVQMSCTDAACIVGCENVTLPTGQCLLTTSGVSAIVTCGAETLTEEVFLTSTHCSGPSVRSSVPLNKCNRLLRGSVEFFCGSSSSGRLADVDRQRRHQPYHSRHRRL
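Detergent-free condition (0.00005% Triton X-100) in acetate buffer pH 5.5 with DTT. 1.5 nM enzyme and compound were pre-mixed 15 min, then 2 uM Z-FR-AMC substrate added; reaction progress from fluorescence change between first and third reads (60 s).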
Cruzain Triton = blocks cruzain activity in presence of Triton detergent. P25779. purified cruzain, Z-FR-AMC fluorescence, 0.01% Triton. Potency, µM, without a hit: max response, negative = inhibition, most hits filed as inhibitors. actives 0.43% (n = 200,000). AID 1478;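 further: plate controls were neutral wells for no effect and buffer without enzyme for full effect; nearly all actives have a fitted effect of over 40% in size; top concentration of the series not given in the record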
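Cysteine protease activity tested under reducing, mildly acidic conditions (100 mM sodium acetate pH 5.5, 5 mM DTT) plus 0.01% Triton X-100. Cruzain 1.5 nM; substrate Z-FR-AMC 2 uM; 15 min compound preincubation at room temperature.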
Marburg entry inh = blocks Marburg virus binding to or entry into cells. AID 540276. Potency, µM (highest dose often 37.8 µM), for inactives: top-dose activity change, negative = inhibition, usual class: inhibitors. actives 1.8% (n = 300,000). Marburg virus pseudotyped entry inhibition, cell reporter; control for the full effect not named in the record; about a third of the inactives were read at about 46 µM; active = well fitted inhibition curve with a large enough effect; inconclusive = small, poorly fitted or top-dose-only effect, or effect the other way; inactive = flat fitted curve, though single readings scatter; tested in HEK293 cells; about a fifth of its hits are not listed in these tables; further: on the % scale 0 is the no-effect control and ±100 the full control effect; luciferase read-out
LASV entry inh = blocks Lassa virus binding to or entry into cells; Lassa virus pseudotype entry inhibition, cell reporter; control for the full effect not named in the record; Potency, µM (doses to about 37.9 µM), without a hit: at the highest dose activity change, negative = inhibition, most hits filed as inhibitors; actives 1.2% (n = 300,000); active means well fitted inhibition curve with a large enough effect; inconclusive means small, poorly fitted or top-dose-only effect, or effect the other way; inactive means flat fitted curve, though single readings scatter; tested in HEK293 cells; further: on the % scale 0 is the no-effect control and ±100 the full control effect; nearly all actives have a fitted effect of over 50% in size; luciferase read-out
RE007 growth inh = less growth of the S. pombe RE007 Vpr strain. S. pombe RE007 Vpr strain, BacTiter-Glo ATP luminescence, 24 h; control for the full effect not named in the record. AID 651644. Potency, µM (top dose mostly 92.2 µM), for the others: at the top dose activity change, negative = less growth. actives 0.21% (n = 360,000); active = well fitted falling curve with a large enough effect; inconclusive = small, poorly fitted or top-dose-only effect; inactive = no such curve, though single readings can be large or run the other way;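 further: on the % scale 0 is the no-effect control and ±100 the full control effect; nearly all actives have a fitted effect of over 50% in size; the assay follows cell death caused by Vpr and the record does not say whether a fall means rescue or toxicity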
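Fission yeast strain RE007, carrying one chromosomally integrated HIV-1 vpr copy, was seeded at OD 0.01 in PMG+AL medium with 23 nL pinned compound. After 24 h at 30 °C and 99% humidity, viability was read by BacTiter-Glo luminescence.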
The depositor's hits bear a star; [ ] = dose if it differs, or a comment. Unless noted, the call rests on the fitted dose curve; in most records, active means well fitted curve in the direction sought with a large enough effect; inconclusive means small, poorly fitted or top-dose-only effect, or another doubt; inactive means no such curve, though single readings can be large; an effect the other way counts as inactive or inconclusive. Potency means the concentration at half of the fitted maximal effect.

Screening CCC1(CC)NC(=O)NC1=O returned StopGo reporter -8%, SARS PLpro yeast 2%, NS1 inh 1%, Cruzain inh noDet 2%, Cruzain Triton -2.3%, Marburg entry inh 1%, LASV entry inh 11% and RE007 growth inh 24%.
CC(C)CN(CCNC(=O)c1cc(=O)[nH]c2ccc(S(=O)(=O)N3CCCCCC3)cc12)CC(C)C was read as StopGo reporter -6%, Cruzain inh noDet -14%, Cruzain Triton 0.9% and LASV entry inh 24%[46.1 µM].
`CSc1ncc(/C=C2/C(=O)NC(=O)N(C3CCCCC3)C2=O)cn1` gave StopGo reporter 0%, SARS PLpro yeast 11%, NS1 inh inconclusive, Cruzain inh noDet 6%, Cruzain Triton 2.6%, Marburg entry inh -10%, LASV entry inh 0% and RE007 growth inh -24%.
`COc1ccc(C2CC(c3ccccc3)=NN2C(=O)COC(=O)c2ccc(Cl)nc2)cc1` (stereo unspecified) gave StopGo reporter 2%, SARS PLpro yeast -28%, NS1 inh 15%, Cruzain inh noDet -28%, Cruzain Triton -4.9%, Marburg entry inh 0%, LASV entry inh -4% and RE007 growth inh -7%.
Screening COc1cccc(/C=C/c2nc(C#N)c(N3CCCCC3)o2)c1 returned StopGo reporter 0%, Cruzain inh noDet inconclusive, Cruzain Triton -28%, Marburg entry inh 1%[46.1 µM] and LASV entry inh -18%[46.1 µM].
CNC(=O)/C(C#N)=C/c1cn(CC(=O)NCc2ccco2)c2ccccc12 was read as StopGo reporter -10%, SARS PLpro yeast 3%, Marburg entry inh -9%[46.1 µM], LASV entry inh -21%[46.1 µM] and RE007 growth inh 4%.
For CCOC(=O)c1c(C)[nH]c(C(=O)COC(=O)C(C)Oc2ccc(Cl)cc2Cl)c1C (stereo unspecified) the results were StopGo reporter 10%, SARS PLpro yeast -17%, NS1 inh 5%, Cruzain inh noDet 10%, Cruzain Triton -11%, Marburg entry inh 1%, LASV entry inh -12% and RE007 growth inh -10%.
`COc1cccc(/C=N/NC(=S)Nc2cccc(C(=O)O)c2)c1O` gave StopGo reporter inconclusive, SARS PLpro yeast 9%, Marburg entry inh 5.8µM*, LASV entry inh 5.8µM* and RE007 growth inh 10%.
`CCc1cc(=O)oc2cc(OC(C)C(=O)NCC3CCC(C(=O)O)CC3)c(Cl)cc12` (stereo unspecified) gave StopGo reporter -15%, SARS PLpro yeast 2%, NS1 inh 13% and RE007 growth inh 8%.
For Nc1ccc(/C=C/C(=O)c2ccco2)cc1 the results were StopGo reporter 53%[activator], SARS PLpro yeast -26%, NS1 inh -5%, Cruzain inh noDet -24%, Cruzain Triton -12%, Marburg entry inh 43%, LASV entry inh 10% and RE007 growth inh inconclusive.
COc1ccc(-n2ncc(C(=O)Nc3ccc4c(c3)OCCO4)c2C2CCN(C(=O)OC(C)(C)C)CC2)cc1 was read as StopGo reporter -8%, Cruzain inh noDet -9%, Cruzain Triton -8.1% and LASV entry inh inconclusive.
CC1(c2ccc3ccccc3c2)NC(=O)N(CC(=O)N2CCN(c3ccccc3O)CC2)C1=O (stereo unspecified) was read as StopGo reporter inconclusive, SARS PLpro yeast 0%, NS1 inh 20%, Marburg entry inh 5%, LASV entry inh inconclusive and RE007 growth inh 5%.
Screening COc1ccc(S(=O)(=O)N2c3ccccc3OCC2c2ccccc2)cc1 (stereo unspecified) returned StopGo reporter 13µM*, SARS PLpro yeast 1%, NS1 inh 6%, Cruzain inh noDet -27%, Cruzain Triton 0.4%, Marburg entry inh inconclusive, LASV entry inh -23% and RE007 growth inh 3%.
For CCOC(=O)Cn1cnc2c(nnn2Cc2ccc(Cl)cc2)c1=O the results were StopGo reporter -2%, SARS PLpro yeast 0%, NS1 inh 4%, Cruzain inh noDet 0%, Cruzain Triton -2.3%, Marburg entry inh 14%, LASV entry inh -1% and RE007 growth inh 2%.
Screening Cc1ccc(C)c(COc2coc(CN3CCN(C(=O)c4ccco4)CC3)cc2=O)c1 returned StopGo reporter -18%, SARS PLpro yeast -14%, Marburg entry inh -1%, LASV entry inh inconclusive and RE007 growth inh 6%.
`Cc1ccccc1CN1C(=O)c2ccccc2Sc2ccc(C(=O)NCc3ccccc3)cc21` gave StopGo reporter -4%, Cruzain inh noDet 32µM*, Cruzain Triton 0.6% and LASV entry inh inconclusive.
Screening CCCOC(=O)CSC1=C(C#N)C(c2ccccc2OCC)C(C#N)C(=O)N1 (stereo unspecified) returned StopGo reporter -13%, SARS PLpro yeast 11%, NS1 inh inconclusive, Cruzain inh noDet -9%, Cruzain Triton -4.8%, Marburg entry inh 4%, LASV entry inh -1% and RE007 growth inh 14%.
CSc1nc(-c2ccc(F)cc2)nc2c1Cc1c(CO)cnc(C)c1O2 was read as StopGo reporter -11%, Cruzain inh noDet 6%, Cruzain Triton -0.5% and LASV entry inh 16%[46.1 µM].
Screening O=S(=O)(c1ccc(NCc2ccc(F)cc2)nc1)N1CCCC1 returned StopGo reporter 2%, SARS PLpro yeast -1%, Marburg entry inh -17%[46.1 µM], LASV entry inh 0% and RE007 growth inh 0%.
`COc1cccc(CNCc2c(C(=O)O)n(Cc3ccc(C)cc3)c3cc(C)ccc23)c1OC` gave StopGo reporter inconclusive, Cruzain inh noDet -5%, Cruzain Triton 0.2% and LASV entry inh inconclusive.
Cc1nc(C)c(C(=O)N(c2ccccc2F)C(C(=O)NCC2CCCO2)c2ccccc2)s1 (stereo unspecified) was read as StopGo reporter -4%, SARS PLpro yeast 4%, NS1 inh 2%, Marburg entry inh -6%[46.1 µM], LASV entry inh inconclusive and RE007 growth inh 1%.
Screening O=C1CCCc2c1cc(C(=O)NCCCN1CCOCC1)c(=O)n2-c1ccc(Cl)cc1 returned StopGo reporter -11%, SARS PLpro yeast 3%, NS1 inh -8%, Cruzain inh noDet 7%, Cruzain Triton -1.6%, Marburg entry inh -17%, LASV entry inh -2% and RE007 growth inh 4%.
`CCN(CC)CCNC(=O)c1ccc(Cl)c(S(=O)(=O)Nc2ccccc2OC)c1` gave StopGo reporter -5%, SARS PLpro yeast 6%, NS1 inh 4%, Cruzain inh noDet -2%, Cruzain Triton 1.6%, Marburg entry inh 12%, LASV entry inh 3% and RE007 growth inh -8%.
CCOC(=O)C1CCCN(c2c(NCCc3ccccc3)c(=O)c2=O)C1 (stereo unspecified) was read as StopGo reporter 8%, SARS PLpro yeast 1%, NS1 inh 0%, Marburg entry inh 16%[46.1 µM], LASV entry inh 10% and RE007 growth inh -12%.
For Cn1c(=O)c2c(ncn2CC(O)CNc2ccc(F)cc2)n(C)c1=O (stereo unspecified) the results were StopGo reporter -14%, SARS PLpro yeast 0%, NS1 inh 3%, Marburg entry inh -4%, LASV entry inh 12% and RE007 growth inh 5%.
For O=C(CSc1ncc(-c2ccccc2)nn1)NCc1ccco1 the results were SARS PLpro yeast 0%, NS1 inh 8%, Cruzain inh noDet -9%, Cruzain Triton -4.7%, Marburg entry inh 7%, LASV entry inh -4% and RE007 growth inh 11%.
Cc1cccc2sc(NNC(=O)C3COc4ccccc4O3)nc12 (stereo unspecified) was read as StopGo reporter -12%, SARS PLpro yeast -10%, NS1 inh -48%, Cruzain inh noDet 2%, Cruzain Triton -4.9%, Marburg entry inh -2%, LASV entry inh 13% and RE007 growth inh 8%.
`CCOC(=O)C(Cc1c[nH]c2ccccc12)NC(=O)c1ccccc1Br` (stereo unspecified) gave StopGo reporter 32%[activator], SARS PLpro yeast -3%, NS1 inh 11%, Marburg entry inh 10%, LASV entry inh inconclusive and RE007 growth inh -20%.
Screening C/C(=C\c1ccccc1F)C(=O)c1c(C)cc(C)[nH]c1=O returned StopGo reporter 12%, SARS PLpro yeast 10%, NS1 inh -1%, Marburg entry inh 5%, LASV entry inh 0% and RE007 growth inh -9%.
NC(=S)NCc1cccnc1 was read as StopGo reporter -21%, SARS PLpro yeast 0%, NS1 inh 2% and RE007 growth inh -5%.
For Cn1c(SCC(=O)Nc2ccccc2C(F)(F)F)nc2c(c1=O)SCC2 the results were StopGo reporter inconclusive, SARS PLpro yeast 0%, NS1 inh -3%, Marburg entry inh -18%, LASV entry inh -2% and RE007 growth inh 8%.
`COc1ccc(CNC(=O)C(=O)NCC2OCCN2S(=O)(=O)c2cccs2)cc1` (stereo unspecified) gave StopGo reporter -30%, SARS PLpro yeast -21%, NS1 inh 24%, Cruzain inh noDet -7%, Cruzain Triton -1.9%, Marburg entry inh 1%, LASV entry inh 7% and RE007 growth inh -4%.
Screening CN(Cc1ccccc1)C(=O)COC(=O)c1cc(NS(=O)(=O)c2cccs2)ccc1O returned StopGo reporter inconclusive, SARS PLpro yeast -2%, Marburg entry inh -14%, LASV entry inh -25% and RE007 growth inh -2%.
Cc1c(Cl)cccc1NC(=O)CNc1cccc(S(=O)(=O)N(C)C)c1 was read as StopGo reporter -2%, SARS PLpro yeast 0%, NS1 inh -13%, Cruzain inh noDet 5%, Cruzain Triton -0.8%, Marburg entry inh -13%, LASV entry inh -2% and RE007 growth inh inconclusive.
COC(=O)CNC(=O)CN1c2cccc3cccc(c23)S1(=O)=O was read as StopGo reporter -2%, NS1 inh 16%, Cruzain inh noDet -2%, Cruzain Triton 4.5%, Marburg entry inh 4%, LASV entry inh -5% and RE007 growth inh 6%.
Screening COc1cc(/C=C(\C#N)C(=O)Nc2ccccc2F)ccc1OCCN1CCOCC1 returned StopGo reporter inconclusive, SARS PLpro yeast -2%, NS1 inh 6%, Marburg entry inh 22%, LASV entry inh 1% and RE007 growth inh -11%.
`CCCN1Cc2cc(OC)ccc2-c2ccccc2S1(=O)=O` gave StopGo reporter -1%, SARS PLpro yeast 1%, Marburg entry inh inconclusive and RE007 growth inh 2%.
For COCC(=O)N/N=C\c1cccc(OC)c1OC/C=C/c1ccccc1 the results were StopGo reporter -33%, SARS PLpro yeast 7%, NS1 inh -21%, Marburg entry inh -15%[46.1 µM], LASV entry inh inconclusive and RE007 growth inh 6%.
`O=C(C[n+]1cccc(Br)c1)c1ccccc1` gave StopGo reporter 2%, SARS PLpro yeast 7%, NS1 inh 9%, Marburg entry inh 24%[46.1 µM], LASV entry inh -16%[46.1 µM] and RE007 growth inh 15%.
